# miR-21 FLuc – miR-21 reporter, rising signal; HeLa miR-21 FLuc reporter, luciferase, 48 h; 340,000 tested, under 10 active; AID 2288; Potency, µM (titrated, usually from 38.3 µM), without a hit: at the top dose reporter change, positive = more light; active = well fitted rising curve with a large enough effect; inconclusive = small, poorly fitted or top-dose-only effect; inactive = no such curve, though single readings can be large or run the other way;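 also: % of control where 0% means no effect; miR-21 action dims this reporter so a rising signal means less miR-21 action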
#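 Luminescence from a firefly luciferase reporter carrying a miR-21 binding site downstream, stably expressed under a CMV promoter in HeLa cells that make miR-21 endogenously, reports miRNA modulation after 48 h compound exposure up to approximately 40uM final.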
# Rango-impB inh – inhibitors of Rango-importin beta complex formation; AID 540263; Rango CFP/YFP FRET sensor + importin beta, 45 min; Potency, µM (highest dose often 92.2 µM), inactives show at the top dose inhibition of complex formation; hit rate 0.031% among 340,000; active = rising FRET ratio curve, often small or poorly fitted; inconclusive = mostly compound fluorescence or quenching in the first reads; inactive = flat curves in all reads;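 also: potency is read from the fitted curve at half-maximal effect; 0% = DMSO wells and 100% = buffer wells lacking importin beta; nearly all actives have a fitted effect of over 15% in size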
#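 FRET biosensor Rango (snurportin 1 IBB between N-terminal EYFP and C-terminal Cerulean), 50 nM in PBS/1 mM DTT/0.02% Tween-20/0.1% BSA, preincubated 5 min RT with compound; 0.125 microM importin beta added, 45 min RT, CFP/YFP FRET ratio read.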
# GLA inh pH 4.5 – blocks human alpha-galactosidase A at pH 4.5; 230,000 tested, under 10 active; activity change, negative = inhibition, % at 105 µM; purified enzyme, 4-MU-alpha-Gal fluorescence, pH 4.5; AID 1467; inconclusive = small, poorly fitted or top-dose-only inhibition, or a rising curve; inactive = flat fitted curve, though single readings scatter; no compound was filed as active;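 also: 0% = full activity with enzyme and -100% = basal without enzyme; dose as in the result columns while the protocol names 77 µM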
# Target sequence (P06280 whole entry, looked up): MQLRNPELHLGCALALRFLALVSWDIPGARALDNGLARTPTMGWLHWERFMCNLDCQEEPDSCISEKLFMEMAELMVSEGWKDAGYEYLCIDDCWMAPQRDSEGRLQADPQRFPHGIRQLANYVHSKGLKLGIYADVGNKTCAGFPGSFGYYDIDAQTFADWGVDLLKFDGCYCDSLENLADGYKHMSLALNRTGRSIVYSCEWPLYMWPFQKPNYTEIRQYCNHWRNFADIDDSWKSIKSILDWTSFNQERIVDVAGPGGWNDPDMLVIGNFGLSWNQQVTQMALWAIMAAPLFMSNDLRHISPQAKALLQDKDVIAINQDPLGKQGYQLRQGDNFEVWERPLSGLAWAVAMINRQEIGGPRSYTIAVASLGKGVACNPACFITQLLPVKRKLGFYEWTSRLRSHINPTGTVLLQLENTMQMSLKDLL
# Rango release inh – prevents RanGTP from dissociating the Rango-importin beta complex | hit rate 0.071% among 340,000 | O95149+P62826 | Potency, µM (titrated, usually from 46.1 µM), inactives show top-dose activity change, negative = inhibition | Biochemical FRET Rango-importin beta, RanGTP-induced dissociation; active means falling FRET ratio curve, often poorly fitted, with flat reads before Ran was added; inconclusive means other falling curves, or compound fluorescence or quenching; inactive means flat or rising ratio curve;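 also: potency is read from the fitted curve at half-maximal effect; % of control where 0% means no effect; nearly all actives have a fitted effect of over 45% in size; -100% = wells without RanGTP and RCC1; the record marks most hits as doubtful in a second field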
#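 Rango FRET biosensor (snurportin-1 IBB flanked by N-terminal EYFP and C-terminal CFP10) at 0.1 uM, with 0.25 uM importin beta in PBS, 1mM DTT, 0.02% Tween-20, 0.1% BSA. 0.6 uM Ran, 2mM GTP and 0.2 uM RCC1 were then added for 45 min at room temperature. Inhibition read as loss of FRET rise.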
# The depositor's hits bear a star; ? = inconclusive; nt = not tested or not shown. An excerpt; count on the stated rates, not on these rows.
SMILES,miR-21 FLuc,Rango-impB inh,GLA inh pH 4.5,Rango release inh
Cc1cccc(-n2c(=O)c3c(n4cnnc24)-c2ccccc2CC32CCCCC2)c1,-5%,3.8%,-6,8%
CC(C)NC(=S)NN=C1c2ccccc2-c2ccccc21,0%,-5.4%,-3,0%
COc1ccc(/C=N/Nc2ccccc2C(=O)O)cc1,4%,-0.1%,nt,0%
O=C(O)CC(Cc1ccc(Cl)cc1)C(=O)Nc1ccc([N+](=O)[O-])cc1 (configuration not stated),-1%,-1.3%,-1,2%
CCCc1c(C(=O)N/N=C/c2ccc(OCc3ccccc3)c(OC)c2)nnn1-c1nonc1N,-2%,-0.7%,nt,-20%
CCOc1cc(S(=O)(=O)NC2CC(C)(C)NC(C)(C)C2)ccc1Cl,-8%,-3.3%,nt,-9%
CCN(C(=O)CSc1nnc(-c2ccncc2)n1C)C1CCS(=O)(=O)C1 (configuration not stated),1%,5.0%,4,10%
CCCCOc1ccc(CONS(=O)(=O)c2ccc(NC(C)=O)cc2)cc1Cl,1%,?,7,-6%
O=c1[nH]cc(NCCc2ccccc2)c(=O)[nH]1,-16%,?,-9,?
CCOC(=O)C1(CCOc2ccccc2)CCN(CC2CC2)CC1,2%,-2.9%,nt,-2%
O=C(Nc1ccc(S(=O)(=O)N2CCCC2)cc1)c1cccnc1,0%,-0.6%,-20,0%
O=c1cc(NC2CCCCC2)[nH]c(=O)[nH]1,nt,-2.1%,nt,-1%
CCCNC(=O)C(=O)NCC(c1ccc2c(c1)OCO2)N1CCN(c2ccc(F)cc2)CC1 (configuration not stated),-3%,1.8%,nt,-5%
COc1ccc(CN(C)C(=O)/C=C/c2ccc(S(=O)(=O)N3CCOCC3)cc2)cc1F,nt,-2.0%,nt,4%

# Exported with two lines to a compound: part of the list above.
# Results follow in this order: miR-21 FLuc	Rango-impB inh	GLA inh pH 4.5	Rango release inh
O=C(O)CC(Cc1ccc(Cl)cc1)C(=O)Nc1ccc([N+](=O)[O-])cc1 (configuration not stated)
  -1%	-1.3%	-1	2%
CCCc1c(C(=O)N/N=C/c2ccc(OCc3ccccc3)c(OC)c2)nnn1-c1nonc1N
  -2%	-0.7%	nt	-20%
CCOc1cc(S(=O)(=O)NC2CC(C)(C)NC(C)(C)C2)ccc1Cl
  -8%	-3.3%	nt	-9%

# An excerpt from the list above:
SMILES,miR-21 FLuc,Rango-impB inh,GLA inh pH 4.5,Rango release inh
CCCNC(=O)C(=O)NCC(c1ccc2c(c1)OCO2)N1CCN(c2ccc(F)cc2)CC1 (configuration not stated),-3%,1.8%,nt,-5%
COc1ccc(CN(C)C(=O)/C=C/c2ccc(S(=O)(=O)N3CCOCC3)cc2)cc1F,nt,-2.0%,nt,4%

# In another format: entries from further up
mol: CCCc1c(C(=O)N/N=C/c2ccc(OCc3ccccc3)c(OC)c2)nnn1-c1nonc1N
  miR-21 FLuc = -2%; Rango-impB inh = -0.7%; GLA inh pH 4.5 = nt; Rango release inh = -20%

mol: CCOc1cc(S(=O)(=O)NC2CC(C)(C)NC(C)(C)C2)ccc1Cl
  miR-21 FLuc = -8%; Rango-impB inh = -3.3%; GLA inh pH 4.5 = nt; Rango release inh = -9%

mol: CCN(C(=O)CSc1nnc(-c2ccncc2)n1C)C1CCS(=O)(=O)C1 (configuration not stated)
  miR-21 FLuc = 1%; Rango-impB inh = 5.0%; GLA inh pH 4.5 = 4; Rango release inh = 10%

mol: CCCCOc1ccc(CONS(=O)(=O)c2ccc(NC(C)=O)cc2)cc1Cl
  miR-21 FLuc = 1%; Rango-impB inh = ?; GLA inh pH 4.5 = 7; Rango release inh = -6%
